Screening data (PubChem)
VDR inhibitor = blocks the human vitamin D receptor | VDR-SRC2-3 peptide fluorescence polarization, 2 h | Potency, µM, for the others: max response, negative = inhibition, actives largely listed as inhibitors | 0.93% of 400,000 active | P11473; active = well fitted inhibition curve with a large enough effect; inconclusive = small, poorly fitted or top-dose-only effect, or another doubt; inactive = no such curve, though single readings can be large or run the other way; note: series mostly up to about 120 µM
Target sequence (P11473 whole entry, looked up): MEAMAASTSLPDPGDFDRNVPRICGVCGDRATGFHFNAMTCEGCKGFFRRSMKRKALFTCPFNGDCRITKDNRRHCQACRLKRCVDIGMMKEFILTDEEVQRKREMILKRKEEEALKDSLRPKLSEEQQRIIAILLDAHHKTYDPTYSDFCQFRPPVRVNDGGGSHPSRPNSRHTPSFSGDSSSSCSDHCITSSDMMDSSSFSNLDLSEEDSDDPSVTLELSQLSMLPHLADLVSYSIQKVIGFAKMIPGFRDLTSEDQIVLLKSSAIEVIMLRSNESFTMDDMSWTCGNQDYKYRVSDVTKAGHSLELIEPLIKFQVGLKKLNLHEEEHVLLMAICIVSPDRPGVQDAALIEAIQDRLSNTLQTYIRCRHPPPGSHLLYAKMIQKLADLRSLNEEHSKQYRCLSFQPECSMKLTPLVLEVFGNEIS
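Compounds are added to VDR with labelled SRC2-3 coactivator peptide and held 2 h at room temperature. Inhibition of the VDR–peptide interaction is then read as a change in fluorescence polarization.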
Active calls of the source: *; ? = inconclusive. % is set by controls: 0 for no effect and ±100 for the full control effect; potency is the fitted concentration of half-maximal effect. This is a subset. The share of hits here may be higher or lower than overall.

VDR inhibitor,compound
2%,COc1ccc(CCNC(=O)CC(NC(=O)c2ccccc2Cl)c2ccccc2)cc1 (stereo not drawn)
4%,CCCCOc1ccc(C(=O)Oc2cccnc2)cc1
-1%,Cc1cc(F)c(F)c(C(=O)N2CCOCC2)c1Cl
?,CCc1nc(Nc2cccc(O)c2)c2oc3ccccc3c2n1
-14%,CCOC(=O)COc1nc(-c2ccccc2)cc(-c2ccco2)c1C#N
-2%,O=S(=O)(c1ccc(NC(=S)N2CCN(c3ccccc3F)CC2)cc1)N1CCOCC1
-2%,Cc1ccc(Sc2c(C)nn(C(=O)c3cccc(S(=O)(=O)N4CCOCC4)c3)c2C)cc1
-1%,O=C(COC(=O)c1cc(-c2cccs2)nc2ccccc12)c1ccc(Br)cc1
8%,Cc1csc2nc(O)c(C(=O)NCCN3CCOCC3)c(=O)n12
18%,Cc1c(NC(=O)Cc2ccc(F)cc2)cccc1-c1nc2cccnc2s1
-1%,c1ccc2occc2c1
27%,Cc1ccccc1C(=O)NC1CCN(C(=O)Nc2ccc(F)cc2)CC1
1%,Cc1nnc(SCC(=O)NC2CCCCCC2)n1N
12%,CCC(=O)NCCc1nc2ccccc2n1Cc1ccc(C)cc1
-1%,COc1ccccc1N(CC(=O)NCCSCc1cccc(C)c1)S(=O)(=O)c1ccccc1

An excerpt from above in order of SMILES length, rising:
VDR inhibitor,compound
1%,Cc1nnc(SCC(=O)NC2CCCCCC2)n1N
4%,CCCCOc1ccc(C(=O)Oc2cccnc2)cc1
2%,COc1ccc(CCNC(=O)CC(NC(=O)c2ccccc2Cl)c2ccccc2)cc1 (stereo not drawn)

(further entries)
VDR inhibitor,compound
-11%,O=C(C1CC1)N1CCc2cc(Br)cc(S(=O)(=O)NCCCN3CCCCC3)c21
?,COc1cccc(/C=N/NC(=O)Cn2cnc3c2c(=O)n(C)c(=O)n3C)c1
22%,NC(=O)Nc1ccc(C(=O)OCC(=O)N2CCCC2=O)cc1
3%,Cc1c(C(=O)O)oc2ccc(S(=O)(=O)NC3CCCCCCC3)cc12
-13%,O=C(NCCc1ccc(Cl)cc1)c1ccc2c(c1)N(Cc1ccc(Cl)cc1)C(=O)CS2
-16%,Cc1ccc(OCCC(=O)OCC(=O)NC2CCCC2)cc1
-9%,CN(c1cccc(Cl)c1)S(=O)(=O)c1cccc(C(=O)NCc2ccncc2)c1
0%,Cc1ccc2c(c1)c1c(n2CC2COC(C)(C)O2)C(=O)CCC1 (stereo not drawn)
-16%,COc1ccc(C(=O)N2CCCCC2)cc1S(=O)(=O)Nc1cccc(C(=O)O)c1
-11%,O=C(C1CCN(C2CC(=O)N(c3cccc(Cl)c3)C2=O)CC1)N1CCCC1 (stereo not drawn)
?,CC(C)n1cnc2c(NCc3ccccc3)nc(NCc3ccccc3)nc21
-14%,Cc1ccccc1OCCC(=O)OCC(=O)Nc1c(C)nn(-c2ccccc2)c1C
-4%,Cc1cc(C)cc(NC(=O)Nc2cc(-c3ccccc3)nn2C)c1
-1%,CN(C(=O)c1cccc(NC(=O)Cc2ccc(NC(=O)C3CCN(C(=O)C4CCCCC4)CC3)cc2)c1)C1CC1
?,COc1ccccc1NC(=O)CCNS(=O)(=O)c1ccc2[nH]c(=O)oc2c1
8%,COCCN1Cc2cccc(C(=O)NCc3ccccc3OC)c2C1=O
?,Cc1ccnc(N2CCC(C(=O)NC3CCCCCC3)CC2)n1
-14%,O=C(CCC1CCCN(C(=O)c2ccc3cc[nH]c3c2)C1)N1CCN(c2ccccn2)CC1 (stereo not drawn)
-7%,COc1cc(SC)ccc1C(=O)NCCOc1ccc(C)c(C)c1
12%,O=C(NCc1ccc(Cl)cc1)C1CCN(S(=O)(=O)c2cccs2)CC1
-5%,N=c1c(C(=O)NCc2ccco2)cc2c(=O)n3ccccc3nc2n1Cc1ccccc1
-13%,CCOC(=O)C1CCCN(C(=O)c2cc(-c3ccccc3)nc3ccccc23)C1 (stereo not drawn)
-16%,O=C(/C=C\c1ccco1)NC(=S)Nc1ccccc1O
-13%,CN(Cc1ccccc1N1CCCC1)C(=O)c1cc2ccccc2o1
-10%,CCCC1CC(CSC(=N)N)OC1=O (stereo not drawn)
2%,CC(=O)Nc1cccc(NC(=O)CSc2ccc(-c3sc(-c4ccccc4)nc3C)nn2)c1
-9%,COc1cc(C(=O)N2CCN(C(=O)C3COc4ccccc4O3)CC2)cc(OC)c1OC (stereo not drawn)
15%,Cc1ccc(-n2ncc(C(=O)NCCCN3CCCCC3)c2C2CCN(C(=O)OC(C)(C)C)CC2)c(C)c1
8%,COc1ccccc1N1CCN(CC(O)COc2ccc(Cl)c(C)c2)CC1 (stereo not drawn)
-15%,CC(C)(C)c1csc(NC(=O)c2ccc(Cl)s2)n1
-7%,O=C(N[C@@H](Cc1ccc(O)cc1)C(=O)O)c1ccc(C(F)(F)F)cc1
1%,Cc1ccc(Nc2cnn(C34CC5CC(CC(CC(=O)O)(C5)C3)C4)c(=O)c2Cl)c(Cl)c1
7%,CCc1ccc(OCC(=O)NNC(=O)c2nn(CC)c(=O)c3ccccc23)cc1
-10%,Cc1ccccc1-c1nc2c3c(-c4ccccc4)c(-c4ccccc4)oc3ncn2n1
5%,COc1cc(CN(C(=O)c2oc3ccccc3c2C)C2CCS(=O)(=O)C2)cc(OC)c1OC (stereo not drawn)
-17%,CC(=O)Nc1ccc(NS(=O)(=O)c2ccc(-c3cnc(C4CC4)o3)cc2)cc1
-7%,Cc1ccccc1C1CC(c2cccs2)Nc2nnnn21 (stereo not drawn)
?,CCC(C)(C)n1nnnc1C(c1ccccc1OC)N1CCN(C(=O)c2ccco2)CC1 (stereo not drawn)
-9%,O=C(COc1cccnc1[N+](=O)[O-])Nc1cc(S(=O)(=O)N2CCCCC2)ccc1Cl
4%,O=C(Nc1cccc(NC(=O)c2cccc(Cl)c2)c1)c1cccnc1
-13%,CCCN(CCC)C(=O)Cn1c(=O)n(-c2cccc(OC)c2)c(=O)c2c3c(sc21)CCCC3
-5%,O=C(O)c1ccccc1-c1ccccc1C(=O)Nc1nccs1
-8%,CCn1c(=O)c2cc(C(=O)Nc3ccc(OC)cc3OC)sc2c2ccccc21
10%,CC1CN(C2CCN(S(=O)(=O)Cc3ccccc3)CC2)CC(C)O1 (stereo not drawn)
9%,COCC(=O)N1CCC2(CC1)CN(c1ccccc1)C2

Part of the list above, with tabs:
smiles	VDR inhibitor
CCc1ccc(OCC(=O)NNC(=O)c2nn(CC)c(=O)c3ccccc23)cc1	7%
COc1cc(CN(C(=O)c2oc3ccccc3c2C)C2CCS(=O)(=O)C2)cc(OC)c1OC (stereo not drawn)	5%
CC1CN(C2CCN(S(=O)(=O)Cc3ccccc3)CC2)CC(C)O1 (stereo not drawn)	10%
CCCN(CCC)C(=O)Cn1c(=O)n(-c2cccc(OC)c2)c(=O)c2c3c(sc21)CCCC3	-13%
Cc1ccccc1C1CC(c2cccs2)Nc2nnnn21 (stereo not drawn)	-7%

Additional entries
VDR inhibitor,compound
-11%,CCOc1ccc(-n2cnnn2)cc1S(=O)(=O)N1CCC(C)CC1C (stereo not drawn)
?,CCOC(=O)c1c(NC(=O)c2noc3c2CC(C(C)(C)C)CC3)sc2c1CCCC2 (stereo not drawn)
-2%,Cc1cccc(N=C2NC(=O)/C(=C/c3cccs3)S2)c1
-6%,COc1ccc(S(=O)(=O)N(C)C)cc1NCC(=O)Nc1ccc(Br)c(C)c1
0%,COC(=O)c1c(NC(=O)C(=O)NCCCN2CCOCC2)sc2c1CCC2
-21%,O=C1/C(=C/c2ccncc2)SC(=S)N1N1CCOCC1
7%,O=Cc1cnc(N2CCCCC2)s1
-7%,CC(C)(C)NC(=O)c1cnn2c1NC(c1ccc(F)cc1)CC2C(F)(F)F (stereo not drawn)
-1%,CC1CC=C(O)C12OCC(C)(C)CO2 (stereo not drawn)
-14%,CCOc1nc(NCCO)nc(Nc2cc(Cl)ccc2OC)n1
13%,COc1ccc(C)cc1NC(=O)C1CCN(C(=O)c2ccco2)CC1
2%,CCN(C(=O)c1ccc2c(OC)n(CC)nc2c1)c1ccc(OC)cc1
6%,CCOc1ccccc1NC(=O)Cn1ccn(-c2ccccc2)c(=O)c1=O
?,O=C1CN(c2ccccc2)C(=S)N1C(=O)c1ccc(Br)cc1
3%,C=C(C)CSc1nnc([C@@H]2CCCN2C(=O)OC(C)(C)C)o1
1%,CCOC(=O)C(=CNc1ccc(Oc2cncc(Cl)c2)nc1)C(=O)OCC
1%,Cn1c(CCCNC(=O)c2cccs2)nc2ccccc21
-13%,Cc1ccc(C(=O)NCCCc2ccccc2)s1
-17%,Cc1nnsc1C(=O)N/N=C/c1c(F)cccc1Cl
-8%,COc1ccc(NC(=O)CSc2ccc(-c3cccnc3)nn2)c(OC)c1
8%,Cc1c(NC(=O)[C@@H](NC(=O)c2ccc(Cl)c([N+](=O)[O-])c2)C(C)C)c(=O)n(-c2ccccc2)n1C
-12%,COc1ccc(NC(=O)CCNS(=O)(=O)c2cc(Br)cnc2N)cc1OC
13%,O=C(NCC(=O)N(c1cccnc1)C(C(=O)NC1CCCC1)c1cccs1)c1ccco1 (stereo not drawn)
-4%,CC(=O)n1c(-c2ccccc2)c(-c2ccccc2)n(C)c1=O
-8%,COc1ccc(-c2ccc3c(N)c(C(=O)NCc4ccc(Cl)cc4)sc3n2)cc1
2%,COc1cc(C(=O)NCCc2ccc(F)cc2)c([N+](=O)[O-])cc1OC
-1%,CC1CN(C(=O)c2ccc(S(=O)(=O)Nc3ccccc3Cl)cc2)CC(C)O1 (stereo not drawn)
-1%,CCOc1ccc(-c2c(C(=O)N/N=C/c3ccc(Cl)cc3)nnn2-c2nonc2N)cc1
-18%,CCCCCCC1(C)NC(c2ccc3c(c2)OCO3)=CC(c2ccccc2O)N1 (stereo not drawn)
-6%,Cc1ccccc1CN1[C@@H](C(C)C)COCCS1(=O)=O
17%,Cc1cc(C)c(C)c(S(=O)(=O)N(C)C2CCN(C)CC2)c1C
-6%,Nc1c(C(=O)c2cccs2)oc2ccccc12
6%,CCNC(=S)N1CCN(S(=O)(=O)c2ccc(C)cc2)CC1
-14%,Cc1cc(OCC(=O)NCCc2cccc(F)c2)c2c(C)cc(=O)oc2c1
0%,COc1ccc(OCC(=O)N2CCN(C(=O)c3cccc(OC)c3OC)CC2)cc1
-3%,Fc1ccc(Oc2cnc3ccccc3n2)cc1
-11%,O=C(CSc1nnc(CNC(=O)c2c(F)cccc2F)o1)NCCc1ccccc1
-26%,O=C(CC(=O)Nc1cccnc1)Nc1cccnc1
-15%,O=C(c1ccc(NS(=O)(=O)c2ccc3[nH]c(=O)[nH]c3c2)cc1)N1CCCCC1
2%,CC(C)CNC(=O)COC(=O)CCC(=O)c1ccc(F)cc1
?,N#Cc1c(Nc2ccccc2)s[nH]c1=O
15%,O=C(Nc1ccc(S(=O)(=O)Nc2cnc3ccccc3n2)cc1)c1ccc(Br)o1
13%,Cc1ccc(Cl)cc1NS(=O)(=O)c1ccccc1
0%,COc1cccc2sc(N3CCN(c4nc5ccccc5s4)CC3)nc12
-9%,Cc1ccccc1Nc1c(N)c(=O)oc2ccccc12

Random excerpt: three records from the list
VDR inhibitor,compound
17%,Cc1cc(C)c(C)c(S(=O)(=O)N(C)C2CCN(C)CC2)c1C
13%,Cc1ccc(Cl)cc1NS(=O)(=O)c1ccccc1
-9%,Cc1ccccc1Nc1c(N)c(=O)oc2ccccc12

Next structures follow:
VDR inhibitor,compound
-19%,Cc1cc(C)nc(NS(=O)(=O)c2ccc(-n3cccc3)cc2)n1
-15%,Cc1ccc(O)c(C(=O)c2cnc3c(c2)CN(CCC(C)C)C(=O)N3)c1
-2%,CCn1cc(C(=O)NCc2ccccc2Cl)c(=O)c2cc(S(=O)(=O)N3CCOCC3)ccc21
50µM*,Cc1cccc2c1N(CCCOc1ccccc1)C(=O)C2=O
-2%,Cc1ccc2cc(C3C(C#N)=C(N)Oc4c3ccc3cccnc43)c(=O)[nH]c2c1 (stereo not drawn)
14%,CCOc1ccc2nc(N3CCN(C(=O)C(C)C)CC3)sc2c1
2%,CSCCC(Nc1nc2ccccc2s1)C(=O)O (stereo not drawn)
0%,COc1ccc(CCNC(=O)CSc2nnc(Cn3c(=O)sc4ccccc43)n2C)cc1OC
-27%,O=C(Nc1nnc(-c2cc(Cl)ccc2Cl)o1)C1=COCCO1
2%,Cc1cccc(NC(=O)CCS(=O)(=O)c2ccccc2)n1
-8%,COc1ccc(C2CC(Cn3cc(C#N)c(=O)n(C)c3=O)ON2C)cc1 (stereo not drawn)
10%,O=C(Nc1ccc(-c2nc3ccccc3o2)cc1)C1CCCO1 (stereo not drawn)
7%,Cc1n[nH]c(C)c1S(=O)(=O)N1CCC(C(=O)Nc2cccc(F)c2)CC1
11%,O=C(Cn1cnc2c(oc3ccccc32)c1=O)Nc1ccccc1C(F)(F)F
-1%,CCOC(=O)c1ccc(CSc2n[nH]c(C)n2)o1
0%,Cc1cc(Cl)ccc1C1=CC(=O)C[C@H](c2ccc(F)cc2)C1

In another format: entries from further up
structure | VDR inhibitor
CCn1cc(C(=O)NCc2ccccc2Cl)c(=O)c2cc(S(=O)(=O)N3CCOCC3)ccc21 | -2%
Cc1c(NC(=O)[C@@H](NC(=O)c2ccc(Cl)c([N+](=O)[O-])c2)C(C)C)c(=O)n(-c2ccccc2)n1C | 8%
Cc1ccc(Cl)cc1NS(=O)(=O)c1ccccc1 | 13%
